Screens from PubChem.
NS1 inh: inhibitors of influenza NS1 protein function. S. cerevisiae slowed by influenza A NS1, growth recovery by OD600. Potency, µM (titrated, usually from 46.1 µM), for inactives: at the highest dose activity, positive = more growth. 270,000 compounds, 0.4% hits. AID 2326; active means well fitted rising curve with a large enough effect; inconclusive means small, poorly fitted or top-dose-only effect; inactive means no such curve, though single readings can be large or run the other way; further: nearly all actives have a fitted effect of over 50% in size
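Growth recovery, yeast-based: influenza A NS1 expressed in S. cerevisiae causes slow growth, and suppressors are detected by OD600. The parent strain without NS1 is used as positive control.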
Cruzain Triton: cruzain (T. cruzi) inhibition with detergent. P25779. purified cruzain, Z-FR-AMC fluorescence, 0.01% Triton. Potency, µM, for inactives: max response, negative = inhibition, actives largely listed as inhibitors. 200,000 compounds, 0.43% hits;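 further: plate controls were neutral wells for no effect and buffer without enzyme for full effect; nearly all actives have a fitted effect of over 40% in size; top concentration of the series not given in the record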
Target sequence (P25779 123-467 limits assumed): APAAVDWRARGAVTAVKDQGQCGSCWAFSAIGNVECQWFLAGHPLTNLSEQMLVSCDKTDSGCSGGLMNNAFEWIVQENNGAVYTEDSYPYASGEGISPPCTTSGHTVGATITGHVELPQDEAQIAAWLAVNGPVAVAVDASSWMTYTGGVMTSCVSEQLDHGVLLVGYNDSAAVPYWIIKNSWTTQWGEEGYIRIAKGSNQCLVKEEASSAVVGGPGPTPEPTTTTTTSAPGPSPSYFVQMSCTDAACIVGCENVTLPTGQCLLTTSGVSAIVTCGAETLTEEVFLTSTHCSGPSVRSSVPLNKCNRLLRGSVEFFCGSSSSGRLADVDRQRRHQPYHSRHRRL
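Cysteine protease activity tested under reducing, mildly acidic conditions (100 mM sodium acetate pH 5.5, 5 mM DTT) plus 0.01% Triton X-100. Cruzain 1.5 nM; substrate Z-FR-AMC 2 uM; 15 min compound preincubation at room temperature.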
Cruzain inh noDet: blocks cruzain activity in detergent-free assay | AID 1476 | purified cruzain, Z-FR-AMC fluorescence, no detergent | P25779 | Potency, µM, for the others: max response, negative = inhibition, hits mostly inhibitors | 200,000 compounds, 2.3% hits;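 further: plate controls were enzyme without inhibitor for no effect and buffer without enzyme for full effect; nearly all actives have a fitted effect of over 40% in size; top concentration of the series not given in the record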
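Detergent-free condition (0.00005% Triton X-100) in acetate buffer pH 5.5 with DTT. 1.5 nM enzyme and compound were pre-mixed 15 min, then 2 uM Z-FR-AMC substrate added; reaction progress from fluorescence change between first and third reads (60 s).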
2A StopGo: lowers the luciferase signal of an FMDV 2A StopGo reporter | AID 1159524 | 410,000 compounds, 1.2% hits | Potency, µM (series often up to 57.9 µM), inactives show at the highest dose signal change, negative = less light | human cells with a luciferase reporter of 2A StopGo recoding; control for the full effect not named in the record; active = well fitted falling curve with a large enough effect; inconclusive = small, poorly fitted or top-dose-only effect; inactive = no such curve, though single readings can be large or run the other way; tested in HEK293T cells; further: on the % scale 0 is the no-effect control and ±100 the full control effect; nearly all actives have a fitted effect of over 45% in size; luciferase light after 4 h
RE007 growth inh: less growth of the S. pombe RE007 Vpr strain. S. pombe RE007 Vpr strain, BacTiter-Glo ATP luminescence, 24 h; control for the full effect not named in the record. 360,000 compounds, 0.21% hits. AID 651644. Potency, µM (highest dose often 92.2 µM), for the others: at the top dose activity change, negative = less growth; active = well fitted falling curve with a large enough effect; inconclusive = small, poorly fitted or top-dose-only effect; inactive = no such curve, though single readings can be large or run the other way;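 further: on the % scale 0 is the no-effect control and ±100 the full control effect; nearly all actives have a fitted effect of over 50% in size; the assay follows cell death caused by Vpr and the record does not say whether a fall means rescue or toxicity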
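Fission yeast RE007 carrying one integrated HIV-1 vpr copy, seeded at OD 0.01 in PMG+AL medium with 23 nL pinned compound. Grown 24 h at 30 degrees; viability read by BacTiter-Glo luminescence after 5 min.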
LASV entry inh: Lassa virus entry inhibition; Potency, µM (highest dose often 37.9 µM), without a hit: top-dose activity change, negative = inhibition, hits mostly inhibitors; Lassa virus pseudotype entry inhibition, cell reporter; control for the full effect not named in the record; AID 540256; 300,000 compounds, 1.2% hits; active means well fitted inhibition curve with a large enough effect; inconclusive means small, poorly fitted or top-dose-only effect, or effect the other way; inactive means flat fitted curve, though single readings scatter; tested in HEK293 cells; further: on the % scale 0 is the no-effect control and ±100 the full control effect; nearly all actives have a fitted effect of over 50% in size; luciferase read-out
MARV entry inh: inhibitors of Marburg virus binding or cell entry | Potency, µM (doses to about 37.8 µM), inactives show top-dose activity change, negative = inhibition, usual class: inhibitors | Marburg virus pseudotyped entry inhibition, cell reporter; control for the full effect not named in the record; about a third of the inactives were read at about 46 µM | AID 540276 | 300,000 compounds, 1.8% hits; active = well fitted inhibition curve with a large enough effect; inconclusive = small, poorly fitted or top-dose-only effect, or effect the other way; inactive = flat fitted curve, though single readings scatter; tested in HEK293 cells; about a fifth of its hits are not listed in these tables; further: on the % scale 0 is the no-effect control and ±100 the full control effect; luciferase read-out
SARS PLpro yeast: inhibitors of SARS-CoV papain-like protease in yeast. 330,000 compounds, 0.19% hits. S. cerevisiae expressing SARS-CoV PLpro, growth rescue; control for the full effect not named in the record. Potency, µM (titrated, usually from 32.9 µM), inactives show at the top dose activity, positive = growth rescue; active means well fitted rising curve with a large enough effect; inconclusive means small, poorly fitted or top-dose-only effect; inactive means no such curve, though single readings can be large or run the other way; further: 0% is about no effect; nearly all actives have a fitted effect of over 55% in size; growth read by luminescence after 48 h
Starred values were filed as active, the others as inactive; ? = inconclusive; · = not tested or not shown; [ ] = remark or other dose. Unless noted, the call rests on the fitted dose curve; in most records, active means well fitted curve in the direction sought with a large enough effect; inconclusive means small, poorly fitted or top-dose-only effect, or another doubt; inactive means no such curve, though single readings can be large; an effect the other way counts as inactive or inconclusive. Potency means the concentration at half of the fitted maximal effect.

#	canonical_smiles	Cruzain Triton	SARS PLpro yeast	Cruzain inh noDet	MARV entry inh	NS1 inh	RE007 growth inh	LASV entry inh	2A StopGo
1	COc1ccc(C2NC3=C(CCCC3)C(C#N)(C#N)C2(C#N)C#N)cc1 (stereo not given)	-10%	-4%	-3%	5%	?	·	·	·
2	Clc1ccc(Oc2nc(Oc3ccc(Cl)cc3)nc(N3CCOCC3)n2)cc1	-3.7%	-4%	6%	?	-36%	4%	-8%	-23%
3	CCOc1ccc2[nH]c(=O)c(CN(Cc3ccc(F)cc3)C(=O)c3ccco3)cc2c1	-8.1%	-2%	14%	?	11µM*	11%	?	?
4	COC(=O)c1ccc(NC(=O)c2ccc(F)cc2)o1	6.6%	-4%	-4%	11%	-13%	21%	20%	-24%
5	O=C(NCCOc1ccccc1)C1CCCN1C(=O)c1cccs1 (stereo not given)	4.0%	3%	7%	9%	-1%	9%	-18%	9%
6	COc1cccc(/C=C/C(=O)Oc2ccc(C(=O)c3ccc(F)cc3)cc2)c1	-7.7%	6%	4%	17%	-2%	7%	-11%	18%
7	CCOC(=O)CNC1CC(=O)N(c2ccc(Br)cc2)C1=O (stereo not given)	·	-21%	·	·	-4%	13µM*	·	-14%
8	CC/C(=N/Nc1ccccc1)c1cnnc(-c2ccccc2)n1	-4.0%	-21%	?	1%	-6%	17%	15%	3%
9	CCOC(=O)c1c(CSc2ccccc2)n(C)c2cc(Br)c(OCC(O)CNC(CO)(CO)CO)cc12 (stereo not given)	?	21%	?	?	4%	0%	?	-15%
10	Nc1cccc(NP(=O)(c2ccccc2)c2ccccc2)c1	·	0%	·	·	10%	0%	·	6%
11	Nc1c(-c2cccc(Cl)c2)cnn1-c1ccccc1	·	-5%	·	10%[46.1 µM]	-5%	-2%	22%[46.1 µM]	-3%
12	CCCc1nnc(NC(=O)CCC(=O)N2CCN(Cc3cc(F)ccc3OC)CC2)s1	·	4%	·	·	-1%	-2%	·	?
13	Cc1ccc(Nc2cc(C)nc(N3CCOCC3)n2)cc1	-3.8%	12%	5%	5.6µM*	-16%	7%	23%	11%
14	O=C(CNC(=O)OCc1ccccc1)NC(Cc1cnc[nH]1)C(=O)O (stereo not given)	·	·	·	-20%	·	1%	6%	-11%
15	CCOC(=O)c1c(C)oc2nc(C)nc(NCc3ccccc3OC)c12	-4.0%	·	?	·	·	·	-25%[46.1 µM]	-27%
16	COC(CNC(=O)c1cnn2c(C)c(Cc3ccccc3)c(C)nc12)OC	·	2%	·	-22%	·	-7%	?	-16%
17	CCOc1ccc(S(=O)(=O)Nc2cc(OC)c(OC)cc2C(=O)O)cc1	-2.2%	0%	5%	6%	3%	-8%	2%	1%
18	O=C(CCc1nnc(CCC2CCCCC2)o1)NCCn1cccn1	·	1%	·	?	-4%	8%	7%[46.1 µM]	23%
19	CC(=O)C1=C(O)C(=O)N(c2ccccn2)C1c1cccc(F)c1 (stereo not given)	·	-1%	·	·	3%	5%	·	3%
20	CCC1(C)CN=C(c2ccccc2)NC1 (stereo not given)	·	·	·	18%	·	3%	9%	-14%
21	Cc1cc(=O)oc2cc(OCC(=O)OCC(=O)NC(C)C)ccc12	·	0%	·	?	4%	2%	20%	1%
22	c1ccc2c(c1)nc1n2CCN1	1.7%	-33%	-6%	-5%	6%	?	3%	9%
23	CC(C)(C)c1ccc(OCC(=O)N(Cc2ccco2)Cc2ccccc2F)cc1	-12%	·	?	?	·	·	-14%[46.1 µM]	0%
24	COc1ccc(CCNC(=O)c2cc3c(C)nccc3[nH]c2=O)cc1OC	·	2%	·	-28%[46.1 µM]	·	-6%	12%	?
25	O=C(CCn1nnc2ccccc21)Nc1nnc(COc2ccccc2F)s1	-0.3%	-2%	4%	5%	5%	7%	0%	4%
26	O=c1[nH]ncc(NCCCO)c1Cl	-2.5%	-5%	-7%	5%	-1%	2%	-7%	27%
27	COc1cccc(-c2cc(C(=O)NCC3CCCO3)c3ccccc3n2)c1 (stereo not given)	-12%	10%	-4%	-16%	-15%	·	3%	-23%
28	O=C(CN(c1cccc(Cl)c1)S(=O)(=O)c1ccc(Cl)cc1)NCc1ccccn1	·	-2%	·	-23%	-13%	-8%	?	?
29	COc1cc2ccccc2cc1C(=O)Nc1ccc(N2CCN(C(=O)C(C)C)CC2)cc1	·	-2%	·	·	14%	-9%	·	?
30	CCOC(=O)N1CCN(C(=O)c2cn(CC)c3cc(N4CCN(C)CC4)c(F)cc3c2=O)CC1	-0.5%	-11%	-24%	·	-4%	·	·	·
31	COc1ccc(CCNC(=O)c2ccc(N3CCCC3=O)cc2)cc1	2.8%	-1%	8%	16%	15%	10%	-1%	9%
32	Cc1cc(-c2c(C)[nH]n(-c3ccc(Cl)cc3)c2=O)n(-c2ccccc2)n1	3.2%	-6%	?	5%	6%	13%	-14%	-13%
33	CCc1ccccc1N(C)C(=O)c1nn(C)c2c1CSc1ccccc1-2	-1.1%	·	-4%	-26%[46.1 µM]	·	·	17%[46.1 µM]	26%
34	CC(C)C(=O)N1CCN(c2ccccc2NC(=O)c2ccc(Br)o2)CC1	·	-6%	·	?	·	1%	-18%[46.1 µM]	?
35	CN1CCN(C(=O)c2cc(=O)c3cc(Cl)ccc3o2)CC1	·	2%	·	17%[46.1 µM]	3%	6%	25%[46.1 µM]	-16%
36	COc1ccc(S(=O)(=O)N2CC(C)OC(C)C2)cc1C(=O)N1CCCCC1 (stereo not given)	·	-2%	·	-24%	-2%	-7%	0%	-19%
37	CCC(Sc1nc2ccsc2c(=O)n1Cc1ccc(C(=O)O)cc1)C(=O)Nc1ccc(C)c(Cl)c1 (stereo not given)	·	0%	·	·	-19%	-10%	·	-27%
38	CCCN(CCC)CCCNC(=O)C1CCN(S(=O)(=O)CC)CC1	0.3%	·	-11%	·	·	·	?	-10%
39	Oc1c(Br)cc(C2N=C(c3ccccc3)NO2)cc1Br (stereo not given)	-4.1%	-14%	0%	3%	-114%	?	-3%	33%[activator]
40	Cc1ccc2c(c1)-c1c(ssc1=S)C(C)(C)N2C(=O)c1ccco1	-16%	-15%	16µM*	?	11%	-7%	?	·
41	CC(C)(C)C(=O)c1cn(CC(=O)NCc2ccco2)c2ccccc12	·	0%	·	·	-1%	5%	·	105%[activator]
42	O=C(O)C(Cc1ccccc1[N+](=O)[O-])N1C(=O)c2ccccc2C1=O (stereo not given)	·	·	·	21%	·	-7%	-4%	-20%
43	CCc1ccc(N(C(=O)CCC(=O)Nc2cc(C)on2)C(C(=O)NC(C)(C)C)c2ccc(OC)cc2)cc1 (stereo not given)	·	0%	·	?	1%	10%	-22%[46.1 µM]	-2%
44	C=Cn1ccnc1P(=S)(c1ccccc1)c1nccn1C=C	·	2%	·	1%[46.1 µM]	·	10%	6%	2%
45	CCOC(=O)/C(N=Nc1sc(C(=O)OC)c(C)c1C(=O)OCC)=C(\O)CCl	-7.2%	-8%	12%	-72%	6%	-14%	-1%	0%
46	COc1cc(/C=C(/C#N)C(=O)NCCCc2ccccc2)ccc1OCC(=O)O	·	-7%	·	·	24%	-4%	·	-14%
47	CCN1CCN(C(=O)C2CCN(Cc3nc(-c4cccc(Cl)c4)oc3C)CC2)CC1	-0.5%	3%	-2%	3%	1%	-4%	·	-14%
48	COc1cc(CC(NC(C)=O)C(=O)NC2CCN(C(=O)c3cc(OC)c(OC)c(OC)c3)CC2)cc(OC)c1 (stereo not given)	·	1%	·	1%[46.1 µM]	0%	28%	10%[46.1 µM]	0%
49	O=C(NCc1cccs1)c1nn(-c2ccccc2Cl)nc1CO	-1.8%	·	5%	-21%[46.1 µM]	·	·	?	-19%
50	CC1CCCN(Cc2cccc(Oc3ccccc3)c2)C1 (stereo not given)	3.2%	1%	4%	?	-6%	8%	-16%	·

Later entries:
#	canonical_smiles	Cruzain Triton	SARS PLpro yeast	Cruzain inh noDet	MARV entry inh	NS1 inh	RE007 growth inh	LASV entry inh	2A StopGo
51	COc1ccc(OC)c(/C=N/N2CCN(c3ccc(Cl)cc3)CC2)c1	·	-1%	·	·	1%	-9%	·	-11%
52	CC(C)Cn1c(=O)c2sccc2n2c(CCCC(=O)NC3CCCCC3)nnc12	0.6%	·	-3%	·	·	·	-2%[46.1 µM]	-2%
53	O=C(COC(=O)CCSc1ccc(Cl)cc1)NCCc1ccccc1	-17%	4%	11%	-4%	-25%	-5%	-2%	-21%
54	CCC1=C(c2ccc(C)cc2)S(=O)(=O)N=C1N1CCC(C(=O)Nc2ccccc2C(=O)OC)CC1	-3.7%	·	-7%	·	·	·	?	?
55	CCn1cc(CNC(=O)c2cc(-c3ccccc3OC)nc3ccccc23)c(C)n1	1.6%	2%	?	?	-4%	-5%	-5%	?
56	CCS(=O)(=O)c1ccc2oc(Nc3cc(C)cc(C)c3)nc2c1	-9.3%	-7%	1%	-27%	-40%	-8%	-12%	-27%
57	Cc1ccc(S(=O)(=O)N(C)CC(O)Cn2c3ccccc3c3ccccc32)cc1 (stereo not given)	-0.8%	-22%	3%	-17%	-29%	25%	5%	-13%
58	COC(=O)c1ccccc1NC(=O)C1CCCN(S(=O)(=O)c2ccccc2)C1 (stereo not given)	-5.5%	-1%	4%	?	-13%	6%	-4%	?
59	Cc1ccccc1C(=O)Nc1cccc(NC(=S)NC(=O)c2cccs2)c1	-0.3%	4%	?	-25%	-1%	-4%	-5%	9%
60	COc1ccc(-n2nc(C(=O)NCC(=O)N3CCCC3)c3ccccc3c2=O)c(OC)c1	·	0%	·	15%[46.1 µM]	8%	6%	18%	0%
61	CCOc1ccc(OCCC(=O)OCC(=O)Nc2cc(S(=O)(=O)N3CCOCC3)ccc2C)cc1	·	14%	·	-21%	·	2%	1%	35%[activator]
62	COc1ccc(CNC(=O)c2ccc3c(Cl)c4c(nc3c2)CCCC4)c(OC)c1	1.1%	·	27%	8%[46.1 µM]	·	·	?	-21%
63	Cc1cc(C(F)F)n2nc(C(=O)Nc3ccccc3Br)nc2n1	1.5%	1%	-18%	11%	-7%	8%	8%	2%
64	COc1ccc(CC(=O)NNC(=O)c2ccc(Br)s2)cc1OC	·	4%	·	-29%[46.1 µM]	·	-6%	1%[46.1 µM]	53%[activator]
